Marburg entry inh: blocks Marburg virus binding to or entry into cells; Marburg virus pseudotyped entry inhibition, cell reporter; control for the full effect not named in the record; about a third of the inactives were read at about 46 µM; Potency, µM (series often up to 37.8 µM), for the others: top-dose activity change, negative = inhibition, usual class: inhibitors; 300,000 tested, 1.8% active; active = well fitted inhibition curve with a large enough effect; inconclusive = small, poorly fitted or top-dose-only effect, or effect the other way; inactive = flat fitted curve, though single readings scatter; tested in HEK293 cells; about a fifth of its hits are not listed in these tables; also: % is scaled to controls: 0 for no effect and ±100 for the full control effect; luciferase read-out
RE007 growth inh: less growth of the S. pombe RE007 Vpr strain | S. pombe RE007 Vpr strain, BacTiter-Glo ATP luminescence, 24 h; control for the full effect not named in the record | AID 651644 | Potency, µM (titrated, usually from 92.2 µM), without a hit: at the highest dose activity change, negative = less growth | 360,000 tested, 0.21% active; active = well fitted falling curve with a large enough effect; inconclusive = small, poorly fitted or top-dose-only effect; inactive = no such curve, though single readings can be large or run the other way;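 also: % is scaled to controls: 0 for no effect and ±100 for the full control effect; nearly all actives have a fitted effect of over 50% in size; the assay follows cell death caused by Vpr and the record does not say whether a fall means rescue or toxicity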
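Fission yeast RE007 carrying one integrated HIV-1 vpr copy, seeded at OD 0.01 in PMG+AL medium with 23 nL pinned compound. Grown 24 h at 30 degrees; viability read by BacTiter-Glo luminescence after 5 min.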
LASV entry inh: blocks Lassa virus binding to or entry into cells. Potency, µM (titrated, usually from 37.9 µM), for inactives: at the top dose activity change, negative = inhibition, actives largely listed as inhibitors. 300,000 tested, 1.2% active. Lassa virus pseudotype entry inhibition, cell reporter; control for the full effect not named in the record; active means well fitted inhibition curve with a large enough effect; inconclusive means small, poorly fitted or top-dose-only effect, or effect the other way; inactive means flat fitted curve, though single readings scatter; tested in HEK293 cells; also: % is scaled to controls: 0 for no effect and ±100 for the full control effect; nearly all actives have a fitted effect of over 50% in size; luciferase read-out
Cruzain inh noDet: inhibitors of Trypanosoma cruzi cruzain without detergent; 200,000 tested, 2.3% active; purified cruzain, Z-FR-AMC fluorescence, no detergent; P25779; Potency, µM, for the others: max response, negative = inhibition, hits mostly inhibitors; AID 1476; active = well fitted curve in the direction sought with a large enough effect; inconclusive = small, poorly fitted or top-dose-only effect, or another doubt; inactive = no such curve, though single readings can be large; an effect the other way counts as inactive or inconclusive;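 also: plate controls were enzyme without inhibitor for no effect and buffer without enzyme for full effect; nearly all actives have a fitted effect of over 40% in size; top concentration of the series not given in the record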
Target sequence (P25779 123-467 limits assumed): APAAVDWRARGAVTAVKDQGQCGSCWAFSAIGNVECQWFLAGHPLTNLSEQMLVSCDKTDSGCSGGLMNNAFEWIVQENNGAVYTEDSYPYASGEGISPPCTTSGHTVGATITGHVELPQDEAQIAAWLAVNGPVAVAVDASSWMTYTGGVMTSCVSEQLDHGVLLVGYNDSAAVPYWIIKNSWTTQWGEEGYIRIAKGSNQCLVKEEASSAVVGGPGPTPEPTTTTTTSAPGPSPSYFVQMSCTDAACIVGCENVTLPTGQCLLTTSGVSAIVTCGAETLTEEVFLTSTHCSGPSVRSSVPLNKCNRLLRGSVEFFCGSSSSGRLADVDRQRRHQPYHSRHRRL
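Detergent-free condition (0.00005% Triton X-100) in acetate buffer pH 5.5 with DTT. 1.5 nM enzyme and compound were pre-mixed 15 min, then 2 uM Z-FR-AMC substrate added; reaction progress from fluorescence change between first and third reads (60 s).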
NS1 inh: inhibitors of influenza NS1 protein function; 270,000 tested, 0.4% active; S. cerevisiae slowed by influenza A NS1, growth recovery by OD600; Potency, µM (doses to about 46.1 µM), for the others: top-dose activity, positive = more growth; also: actives are rising curves; nearly all actives have a fitted effect of over 50% in size
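In this qHTS, NS1 from influenza A is expressed in budding yeast, where it slows growth. Cells are switched from glucose to 2% galactose medium (pH 6.0, -URA), treated with compound, and growth recovery is read at OD600.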
Cruzain inh Det: inhibitors of Trypanosoma cruzi cruzain with detergent; P25779; purified cruzain, Z-FR-AMC fluorescence, 0.01% Triton; Potency, µM, for the others: max response, negative = inhibition, actives largely listed as inhibitors; 200,000 tested, 0.43% active; active = well fitted curve in the direction sought with a large enough effect; inconclusive = small, poorly fitted or top-dose-only effect, or another doubt; inactive = no such curve, though single readings can be large; an effect the other way counts as inactive or inconclusive;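 also: plate controls were neutral wells for no effect and buffer without enzyme for full effect; nearly all actives have a fitted effect of over 40% in size; top concentration of the series not given in the record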
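15 min RT preincubation of 1.5 nM cruzain with compound, then 2 uM Z-FR-AMC added; kinetic AMC fluorescence, 60 s delta. Triton X-100 0.01%, pH 5.5.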
SARS PLP yeast: SARS-CoV PLP inhibition in yeast | 330,000 tested, 0.19% active | Potency, µM (titrated, usually from 32.9 µM), without a hit: top-dose activity, positive = growth rescue | S. cerevisiae expressing SARS-CoV PLpro, growth rescue; control for the full effect not named in the record; also: 0% is about no effect; nearly all actives have a fitted effect of over 55% in size; growth read by luminescence after 48 h
StopGo reporter: FMDV 2A StopGo reporter, luciferase signal. 410,000 tested, 1.2% active. Potency, µM (doses to about 57.9 µM), for inactives: top-dose signal change, negative = less light. human cells with a luciferase reporter of 2A StopGo recoding; control for the full effect not named in the record. AID 1159524; active = well fitted falling curve with a large enough effect; inconclusive = small, poorly fitted or top-dose-only effect; inactive = no such curve, though single readings can be large or run the other way; tested in HEK293T cells; also: % is scaled to controls: 0 for no effect and ±100 for the full control effect; nearly all actives have a fitted effect of over 45% in size; luciferase light after 4 h
* = called active by the depositor; ? = inconclusive; / = not tested or not shown; & = joins results of further samples; [ ] = dose if it differs, or a comment. Unless noted, calls follow the shape of the dose curve; as a rule, active means well fitted rising curve with a large enough effect; inconclusive means small, poorly fitted or top-dose-only effect; inactive means no such curve, though single readings can be large or run the other way. Potency is read from the fitted curve at half-maximal effect.

Second line of a record – Marburg entry inh	RE007 growth inh	LASV entry inh	Cruzain inh noDet	NS1 inh	Cruzain inh Det	SARS PLP yeast	StopGo reporter
CCn1c(CC(=O)Nc2ccc(F)cc2)nnc1SCC(=O)NC1CCCC1
  -1%[46.1 µM]	-2%	?	/	3%	/	-2%	-7%
CCCCNC(=O)CC1N=C2c3ccccc3N=C(SCC(=O)Nc3cccc(C)c3)N2C1=O (configuration not stated)
  -4%	3%	3%	23%	11%	-1.3%	3%	-22%
CCCCCOCC1CC(C/C(C)=N/NC(N)=S)C(=O)O1 (configuration not stated)
  ?	-7%	?	-23%	12%	-25%	21%	-10%
COc1ccc(CS(=O)(=O)c2ncn[nH]2)cc1
  5%[46.1 µM]	-6%	11%[46.1 µM]	/	3%	/	0%	4%
O=[N+]([O-])c1ccccc1OCCOCCOc1cccc2cccnc12
  ?	-1%	-21%	-5%	-16%	-2.4%	13%	-26%
CC1CCN(N=Nc2nc3c([nH]2)c(=O)n(C)c(=O)n3C)CC1
  ?	8%	10%[46.1 µM]	/	/	/	/	14%
CC1CN(C(=O)/C(=C/c2ccco2)NC(=O)c2ccccc2)CC(C)O1 (configuration not stated)
  -9%[46.1 µM]	-8%	/	/	4%	/	1%	3%
CCOC(=O)C1(Cc2ccccc2)CCN(Cc2cccc(OC)c2O)CC1
  ?	3%	/	/	-1%	/	0%	?
Cc1ccc2c(c1)C(c1ccccc1)N(C(=O)c1ccc(S(=O)(=O)N3CCOCC3)cc1)CC(=O)N2 (configuration not stated)
  ?	1%	-4%	?	0%	-1.0%	-6%	-4%
O=C(Nc1ccc(F)cc1)C(=O)c1c(O)[nH]c2ccc([N+](=O)[O-])cc12
  /	-2%	/	/	-4%	/	1%	-8%
Cc1nn(C)cc1CNC(=O)c1cnn2c1NC(c1ccc(Br)cc1)CC2C(F)(F)F (configuration not stated)
  -5%	-1%	7%	?	-13%	-3.8%	-2%	/
Cc1ccc2c(C)nc(Nc3nc(CSc4nnnn4-c4ccccc4)cc(=O)[nH]3)nc2c1
  -2%	1%	?	3%	14µM*	0.7%	2%	11%
Cc1cccc(NC(=O)COC(=O)c2ccccn2)c1
  10%[46.1 µM]	-15%	-1%[46.1 µM]	/	-2%	/	-10%	2%
O=C(CSc1nc2ccccc2c(=O)n1Cc1ccco1)Nc1cccc(O)c1
  -14%[46.1 µM]	-5%	26%	/	4%	/	1%	37%[activator]
CC(C)[C@H](NC(=O)c1ccco1)C(=O)NCc1ccccc1
  ?	-21%	-21%[46.1 µM]	/	-9%	/	1%	1%
N#CC(C(=O)Nc1ccc(Cl)c(Cl)c1)=C1Nc2ccccc2N1
  ?	-26%	?	?	3%	2.1%	7%	-9%
CCN(CC)S(=O)(=O)c1ccc2oc(C(=O)NCCCN3CCOCC3)c(C)c2c1
  ?	6%	-20%	-1%	-3%	5.6%	3%	/
Cc1ccc(NC(=O)c2cc(S(=O)(=O)N3CCc4ccccc43)ccc2F)cc1Cl
  /	/	-2%[46.1 µM]	?	/	1.7%	/	-15%
COc1ccc(/C=C(\NC(=O)c2ccccc2)C(=O)NCCC(=O)O)cc1
  ?	1%	?	/	-1%	/	0%	-6%
Cc1ccc(CN2CCN(CC(=O)NC(C)c3ccc4c(c3)OCCO4)C2=O)cc1 (configuration not stated)
  1%	5%	/	-17%	-18%	-1.6%	-2%	-16%
Cc1onc(-c2ccccc2)c1C(=O)Nc1ccccc1C#N
  /	-15%&6%	/	-4%	-2%	1.2%	-1%	-22%&-4%
CC(C)CNC(=O)C(=O)NCCC1CCCCN1S(=O)(=O)c1cccs1 (configuration not stated)
  7%	-2%	?	/	/	/	-1%	-4%
COc1ccc(/C=C/C(=O)Nc2nc(-c3cccs3)ns2)cc1
  3%[46.1 µM]	/	-1%[46.1 µM]	-3%	/	-0.3%	/	-30%
C#CCN1C(=O)S/C(=C\c2ccc(N3CCOCC3)cc2C)C1=O
  ?	1%	11%	/	0%	/	0%	5%
COC(=O)C1=C(C)N(c2ccc(OC)cc2)C(C)=C(C(=O)OC)C1c1ccc(OC)cc1
  ?	6%	?	/	-1%	/	-11%	-27%
CCCCn1c(N)c(NCCC)c(=O)[nH]c1=O
  16%	-4%	-5%	6%	-3%	-0.8%	7%	4%
Cc1cc(C)nc(NC2=NCCS2)n1
  26%	-5%	2%	-3%	-4%	2.2%	-1%	-12%
COC(=O)c1cccc(NC(=O)C2CCCN2C(=O)c2cccs2)c1 (configuration not stated)
  1%	-17%	18%	/	/	/	-10%	3%
Cc1ccc(Cl)cc1NC(=O)C1CCCCC1C(=O)O (configuration not stated)
  5%[46.1 µM]	-10%	-2%[46.1 µM]	/	-2%	/	1%	1%
CCN1CC2C3CCC(C)(O3)C2C1 (configuration not stated)
  7%[46.1 µM]	-5%	11%[46.1 µM]	/	?	/	0%	62%[activator]
CC(C)NC(=O)CN1C(=O)c2cccnc2Sc2ccccc21
  /	/	20%[46.1 µM]	-2%	/	-2.0%	/	6%
Cc1cc(/C=N/n2cnnc2)c(C)n1-c1ccc(OCc2ccccc2F)cc1
  ?	2%	?	-9%	-97%	-4.7%	-28%	/
C=Cc1ccc(Cn2c(C(=O)O)c(CNC3CCCCC3)c3ccc(C)cc32)cc1
  /	/	27%[46.1 µM]	-13%	/	-1.4%	/	17%
CCCOc1nc2c(c(=O)n(C)c(=O)n2C)n1C
  5%[46.1 µM]	-2%	3%	/	-2%	/	-1%	-12%
C/C(=N/NS(=O)(=O)c1ccc(C)c(C)c1)c1c[nH]c2ccccc12
  /	1%	/	/	-10%	/	2%	21%
CCOC(=O)CNC(=S)N(Cc1ccco1)Cc1ccccc1Cl
  -22%[46.1 µM]	0%	-20%[46.1 µM]	/	1%	/	0%	-5%
CC(=O)Oc1cc(C(=O)OCC(=O)N2CCc3ccccc3C2)cc(OC(C)=O)c1OC(C)=O
  ?	19%	?	/	/	/	-1%	-2%
Cc1ccc(-c2c[n+](Cc3ccc(Cl)cc3)c3n2CCC3)cc1
  -24%	-1%	?	/	0%	/	-1%	0%
COc1ccc(-n2nc3c(c2NC(=O)CCCl)CSC3)cc1
  -4%[46.1 µM]	-18%	18%[46.1 µM]	/	-3%	/	0%	-7%
C#Cc1ccc([C@H]2C=C(C(=O)N3CCN(Cc4ccc5c(c4)OCO5)CC3)O[C@@H](OCC)[C@@H]2CCCO)cc1
  /	-9%	/	/	-10%	/	0%	?
Cc1ccn(CC(=O)NC2CC(C)(C)Cc3c2cnn3-c2ccc(F)cc2)n1 (configuration not stated)
  19%	5%	-1%	/	-10%	/	-1%	43%[activator]
CCCCc1ccc(S(=O)(=O)N/N=C(/C)c2ccncc2)cc1
  0%	0%	-4%	/	-6%	/	-1%	28%
CSc1ccc(NC(=O)c2cccnc2)cc1C#N
  -7%	-20%	-26%	/	/	/	0%	18%
c1ccc2c(N3CCOCC3)nc(-c3ccncc3)nc2c1
  ?	-9%	-30%	4%	-2%	-6.5%	-19%	-27%
Cc1nnc(NC(=O)CSc2nnc(C)n2Cc2ccccc2)s1
  7%	8%	0%	-7%	2%	1.5%	7%	11%
CCc1ccc(Nc2nnc(SCC(=O)Nc3sccc3C(N)=O)s2)cc1
  ?	11%	?	-17%	20%	-9.7%	-21%	?
CC(C)(C)c1ccc(-c2nnc(-c3ccccc3NC(=O)c3ccc(F)cc3F)o2)cc1
  10%[46.1 µM]	/	3%[46.1 µM]	2%	/	4.2%	/	16%
CCN(C(=O)Cn1c(=O)oc2ccccc21)c1ccc(C)c(C)c1
  /	-12%	/	/	2%	/	1%	-7%
COc1ccc(/C=N/Nc2cc(C)nc3c(C)cccc23)cc1
  /	4%	/	/	-40%	/	-1%	24%
O=C(OCc1ccc(Cl)cc1Cl)c1ccncc1
  13%	10%	1%	5%	-39%	-4.2%	-12%	/

(continued)
Second line of a record – Marburg entry inh	RE007 growth inh	LASV entry inh	Cruzain inh noDet	NS1 inh	Cruzain inh Det	SARS PLP yeast	StopGo reporter
COC(=O)c1ccc(C(=O)OC)c(NC(=S)N2CCN(c3cc(Cl)ccc3C)CC2)c1
  17%	-12%	4.5µM*	?	15%	-4.0%	-8%	13%
CC(=O)CCSc1nnc(-c2cccc(S(=O)(=O)N3CCOCC3)c2)o1
  -9%	-14%	-4%	/	/	/	4%	-3%
O=C(Nc1ccccc1N1CCOCC1)c1ccc2nc[nH]c2c1
  ?	-4%	-10%	/	/	/	2%	-15%
O=C(O)c1cc(C(=O)O)cc(-c2ccc(/C=c3/sc4nc5ccccc5n4c3=O)o2)c1
  6%[46.1 µM]	7%	7%[46.1 µM]	/	/	/	1%	-4%
COc1ccc(NC(=O)CN(c2cc(C)cc(C)c2)S(=O)(=O)c2c(C)n[nH]c2C)cc1
  -5%	14%	/	-1%	-8%	-1.7%	1%	-6%
CCN(CC)CCNC(=O)C1(c2ccccc2)CCCCC1
  ?	7%	7%[46.1 µM]	/	/	/	/	-1%
Cn1c(O)c(/C=C2\C=c3ccccc3=NC2=O)c(=O)n(C)c1=O
  /	3%	/	/	4%	/	1%	-14%
COC(=O)c1c(-c2ccc(C)cc2)csc1NC(=S)NC(=O)c1cc(OC)cc(OC)c1
  3%	-23%	15%	4µM*	-4%	-4.2%	-19%	-17%
Cc1cccc(/C=C2/Sc3ccc(C(=O)NCCN4CCCC4)cc3NC2=O)c1
  /	4%	/	/	11%	/	3%	-22%
O=c1[nH]c(=S)n(C2CC2)c(O)c1C=NCc1cccnc1
  11%[46.1 µM]	-8%	5%[46.1 µM]	/	2%	/	2%	1%
COc1ccc(OC)c(NC(=O)c2nc(S(=O)(=O)Cc3ccc(F)cc3)ncc2Cl)c1
  ?	/	?	?	/	-7.3%	/	22µM*

Bioassay records (PubChem BioAssay)
